# Six1-Eya2 inh: Six1/Eya2 interaction inhibition; AlphaScreen GST-Six1/His-Eya2 binding, biochemical; stronger effect = lower value; control for the full effect not named in the record; 0.56% of 360,000 active; activity change, % (concentration not given with the values); in the data active = activity change below about -65%; inconclusive = about -30% to -65%; inactive = above about -30%; also: % is scaled to controls: 0 for no effect and ±100 for the full control effect
#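 Homogeneous AlphaScreen proximity assay pairing GST-Six1 with His-tagged Eya2 (added as 5X mix: 250 nM and 500 nM) in 50 mM Tris pH 8.0, 300 mM NaCl, 1 mM TCEP. Glutathione donor and nickel acceptor beads; 1 h, 37 °C, dark.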
# TRPV1 potentiator: human TRPV1 potentiation | TRPV1-expressing cells, Fluo-8 calcium influx, capsaicin EC20 potentiation; host cell line not named in the record; control for the full effect not named in the record | Q8NER1 | potentiation, % at 8.33 µM | 0.02% of 320,000 active; active means potentiation above 80%; inconclusive means 30% to 80%; inactive means below 30%; also: 0% is about no effect
#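 Fluo-8 calcium influx in TRPV1-expressing cells, kinetic read (ex 480/em 520 nm). Compound added and read 3 min for agonist activity, followed by capsaicin at EC20 final and 2 min further read for enhancement.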
# CtBP-E1A blk: inhibitors of CtBP/E1A interaction. 0.49% of 340,000 active. AlphaScreen GST-E1A/His-CtBP binding, 1536-well; stronger effect = lower value; control for the full effect not named in the record. activity change, % (test concentration not listed). AID 651724; in the data active means activity change below about -65%; inconclusive means about -30% to -65%; inactive means above about -30%; also: % is scaled to controls: 0 for no effect and ±100 for the full control effect; compound concentration not given in the record
#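 Homogeneous bead-based format: GST-tagged E1A captured on glutathione donor beads, His-tagged CtBP on nickel acceptor beads; compounds precede bead addition by 2 h at 37 °C.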
# TRPML1 ag: activates the human TRPML1 channel; Q9GZU1; TRPML1-expressing cells, Ca2+ dye fluorescence, FDSS; host cell line not named in the record; reference of the full effect not given here; activation, % (concentration not given with the values); 0.12% of 410,000 active; in the data active = activation above about 50%; inconclusive = about 30% to 50%; inactive = below about 30%; also: 0% is about no effect; the text of the record puts the active cut at 80%
#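 Tet-induced TRPML1-DL cells, 1,500 per well, cultured overnight, were loaded with a no-wash Ca2+ dye for 45–90 min. Calcium fluorescence was recorded on the FDSS for 110 s after compound addition, before the EC80 agonist (4 uM 54-4) was added.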
# D2 PAM: human D2 receptor positive allosteric modulation; P14416; DiscoveRx D2 beta-arrestin cells, luminescence, 90 min; 100% = 57 uM dopamine signal; potentiation, % (concentration not given with the values); 0.23% of 360,000 active; active = potentiation of 50% or more; inconclusive = 30% to 50%; inactive = 30% or less;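 also: compound concentration not given in the record; tested on top of an EC20 dose of dopamine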
# Target sequence (P14416 whole entry, looked up): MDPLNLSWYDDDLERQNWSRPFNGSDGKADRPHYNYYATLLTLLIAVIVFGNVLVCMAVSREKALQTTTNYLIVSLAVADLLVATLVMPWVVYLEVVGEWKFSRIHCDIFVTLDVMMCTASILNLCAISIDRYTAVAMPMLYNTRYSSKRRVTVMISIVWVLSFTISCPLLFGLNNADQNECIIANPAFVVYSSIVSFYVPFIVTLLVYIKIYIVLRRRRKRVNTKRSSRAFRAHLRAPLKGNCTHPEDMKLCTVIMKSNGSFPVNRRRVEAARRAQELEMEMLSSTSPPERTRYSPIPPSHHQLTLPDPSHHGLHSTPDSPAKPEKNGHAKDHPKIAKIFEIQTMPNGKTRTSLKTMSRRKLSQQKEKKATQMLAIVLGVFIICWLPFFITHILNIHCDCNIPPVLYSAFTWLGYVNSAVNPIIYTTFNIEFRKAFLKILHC
#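 PathHunter beta-arrestin assay in DiscoveRx D2 cells. Compounds were added with an EC20 of dopamine (50 nM final) for 90 min at 37 deg C. Luminescence was read 1 h after detection reagent, with 57 uM dopamine as the EC100 control.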
# TRPML1 inh: inhibitors of human TRPML1 channel; Q9GZU1; TRPML1-inducible cells, Ca2+ dye fluorescence, FDSS; stronger effect = lower value; inhibition of EC80 agonist-evoked calcium signal; activity change, negative = inhibition, % (no concentration beside the values); 0.02% of 390,000 active; AID 624415; in the data active means activity change below about -50%; inconclusive means about -30% to -50%; inactive means above about -30%;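 also: stimulus is agonist 54-4 at its EC80 concentration; % is scaled to controls: 0 for no effect and ±100 for the full control effect; compound concentration not given in the record; the text of the record puts the active cut at -80%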
#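 TRPML1-DL cells, Tet-induced overnight (~16 h, 37 °C) at 1,500 cells/well, were loaded with Ca8 no-wash dye plus quencher for 45-90 min at room temperature. Compounds were pinned during FDSS kinetic reading; agonist 54-4 at EC80 (4 uM final) then added.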
# * = called active by the depositor; ? = inconclusive; nt = no result given.
SMILES,Six1-Eya2 inh,TRPV1 potentiator,CtBP-E1A blk,TRPML1 ag,D2 PAM,TRPML1 inh
O=C(C1CCN(S(=O)(=O)c2cccs2)CC1)N1CCN(Cc2ccccc2)CC1,19,-8,nt,0.2,-18,41
CC1CN(C(=S)Nc2ccccc2F)CC(C)O1 (stereo not given),-2,?,7,0.1,-2,28
O=C(Nc1cccc(F)c1)C1CC(=O)N(c2ccc(Br)cc2)C1 (stereo not given),9,9,-2,-0.1,-6,9
CC(=C\C(=O)O)/C(=C/c1ccco1)C(=O)O,-1,3,1,0.2,-8,0
COc1ccc(-c2nc(CCNS(=O)(=O)c3ccc4c(c3)OCCO4)cs2)cc1,-1,8,-19,1.7,-7,20
COC(=O)COc1cccc2c(=O)n(CC(=O)N3CCC(C)CC3)ccc12,6,-5,4,-0.3,-7,16
C=C1C(=O)OC2C=C(CO)C3OC3C3OC3(C)CC(OC(=O)/C(=C/C)COC(C)=O)C12 (stereo not given),4,nt,-13,0.0,-18,-6
COc1ccccc1C(=O)NC(=S)N1CCc2ccccc21,-2,16,nt,3.5,16,-18
O=C(Nc1c2c(nn1-c1ccc([N+](=O)[O-])cc1)CS(=O)(=O)C2)C1CC1,1,11,3,-0.5,0,6
CC(C)(C)C1C/C(=C/c2ccccn2)C(=O)/C(=C/c2ccccn2)C1 (stereo not given),0,-5,4,nt,4,nt
N#CCCN(Cc1ccccc1)C(=O)Nc1ccc(F)cc1,9,nt,5,-0.2,-7,-2
COc1ccc(S(=O)(=O)N2CCc3ccccc32)cc1C(=O)NCCc1ccc(S(N)(=O)=O)cc1,5,nt,4,0.1,-4,6
O=C(Nc1ccnn1C1CCN(C2CCCC2)CC1)c1ccccc1Cl,4,-2,10,1.4,-25,3
O=C(CCc1nnc2ccc(NCc3ccccc3Cl)nn12)NC1CCCC1,2,6,-10,0.1,-7,-11
C/C(CC(=O)NC1CCCC1)=N\NC(=O)c1ccc([N+](=O)[O-])c(Cl)c1,6,-7,-4,1.1,-2,-20
CC(=O)Nc1ccc(NC(=O)Nc2ccc3c(c2)N(C)C(=O)CS3)cc1,-6,-2,0,2.0,-7,0
COc1ccc2nc(C)cc(SCC(=O)N/N=C/c3ccc(O)c(O)c3)c2c1,-72*,-1,-72*,0.4,9,-2
COc1cccc(N2C(=O)CC(N3CCN(c4ccc([N+](=O)[O-])cc4)CC3)C2=O)c1 (stereo not given),-4,-7,-6,0.8,-2,19
O=C(Nc1ccc(N2CCN(C(=O)c3ccco3)CC2)cc1)C(c1ccccc1)c1ccccc1,-10,4,0,0.9,-1,2
CN1/C(=C\C(=O)Nc2cccnc2)c2ccccc2CC1(C)C,4,-23,3,1.4,-16,0
COc1ccc(-n2ncc3c(N4CCC(C(N)=O)CC4)ncnc32)cc1,-3,4,-7,-0.8,-4,18
O=C(NCCN1CCOCC1)c1cn(CCc2ccccc2)nn1,5,-6,10,-0.5,17,-27
O=C(N[C@@H]1C/C=C\C[C@@H](CC(=O)N(CCO)Cc2ccccc2)C(=O)NC[C@H](c2ccccc2)OC1=O)OCC1c2ccccc2-c2ccccc21,12,nt,2,-0.2,-19,-9
CC(C)COCc1ccc(O)c2ncccc12,-79*,4,-91*,-0.3,-10,6
CC(C)c1c(Cl)c(O)c(-c2ccccc2)c(=O)n1-c1ccc(F)cc1,-4,10,3,-0.4,-13,-5
CCC(=O)NS(=O)(=O)c1cccnc1Nc1ccccc1Cl,-1,-4,2,0.7,-1,3
O=C(O)c1c2c(nc3ccc(F)cc13)CCC2,4,-2,8,0.5,3,8
CC(S(=O)(=O)c1ccccc1)S(=O)(=O)c1ccccc1,3,nt,1,-0.5,-7,-12
COc1ccc(C(=O)Cn2cnc3ccccc3c2=O)c(OC)c1,2,?,5,0.2,-3,3
O=[N+]([O-])c1ccccc1S(=O)(=O)n1cnc2ccccc21,0,-11,7,-0.6,-7,-2
CCC(C(=O)OCC(=O)c1ccc2c(c1)NC(=O)CO2)c1ccccc1 (stereo not given),-1,-10,1,1.5,-1,0
Cc1ccc(CCNC(=O)C2CC(c3cc(C(F)(F)F)cc(C(F)(F)F)c3)=NO2)cc1 (stereo not given),2,-26,11,1.9,-11,22
Clc1cccc(-c2nc3ccc(Cl)cn3c2Cc2ccsc2)c1,6,nt,1,0.2,5,40
CS(=O)(=O)N(CC(=O)N/N=C/c1ccccc1C(=O)O)c1cccc(Cl)c1Cl,-2,2,8,-1.1,-6,-11
O=C(NNC(=O)c1csc(N2CCOCC2)n1)c1ccc(Cl)nc1,1,0,-7,-0.6,5,-1
CN(C)c1nc(N)ncc1-c1ccc(Oc2ccccc2)cc1,9,-9,0,-0.6,-1,-15
c1ccc(Oc2ncnc3ccccc23)cc1,0,nt,9,0.3,-8,3
Cc1c(CNC(=O)c2cnn3c2NC(c2ccccc2)CC3C(F)(F)F)cnn1C (stereo not given),0,-7,8,-0.4,-22,3
O=C(O)c1cccc(Cn2cc(Br)cn2)c1,3,-6,-7,0.0,-3,-13
CCOc1ccccc1N1CC(C(=O)N(Cc2nnc(-c3ccccc3Cl)o2)C2CC2)CC1=O (stereo not given),-5,2,4,0.2,8,4
O=C(O)C1CC1C(=O)Nc1cc(F)ccc1F (stereo not given),0,0,7,-0.3,-1,-19
CCCCN1C[C@H](Cc2ccccc2)[C@@H](CC(=O)Nc2ccc(OC)cc2)C1=O,8,nt,-6,0.5,0,-6
O=C(O)c1cc2n(n1)C(C(F)(F)F)CC(c1ccccc1)N2 (stereo not given),-6,-1,-1,-1.3,-13,3
CSc1nsc(SCC(=O)N2CCc3ccccc32)n1,2,-21,8,0.3,-1,-24
Cc1cccc(/C=N/N2CCN(c3ccccc3)CC2)c1,-28,8,-11,1.4,-19,-11
CCc1nn(CC(=O)N2CCN(C)CC2)c(=O)c2cccn12,3,2,7,0.3,-5,-11
Cc1ccccc1C(=O)Nc1nc(-c2cccnc2)cs1,9,?,nt,0.2,11,-4
Cc1ccc(-n2ncc3c(=O)n(CC(=O)NC4CCCC4)cnc32)cc1C,7,5,1,1.5,-6,6

# CtBP-E1A blk: what is marked active above
compound	Six1-Eya2 inh	CtBP-E1A blk	D2 PAM	TRPML1 inh
COc1ccc2nc(C)cc(SCC(=O)N/N=C/c3ccc(O)c(O)c3)c2c1	-72*	-72*	9	-2
CC(C)COCc1ccc(O)c2ncccc12	-79*	-91*	-10	6

# Next part
SMILES,Six1-Eya2 inh,TRPV1 potentiator,CtBP-E1A blk,TRPML1 ag,D2 PAM,TRPML1 inh
COC(=O)c1ccc(/C=C2/SC(=S)N(CCC(=O)NCCCN3CCOCC3)C2=O)cc1,-9,-6,0,-0.3,-6,2
S=C(NCC1CCCO1)Nc1ccccc1 (stereo not given),4,3,1,0.5,-10,32
COc1cccc(-c2cc(NC=O)c3ncc(-c4ccc(F)c(Cl)c4)n3c2)c1,-5,nt,-8,0.1,-16,38
CCC1CCCCN1C(=S)NC(=O)c1ccc([N+](=O)[O-])cc1 (stereo not given),1,4,4,0.5,-7,16
CCN(CC)C(=O)C1=C(C)N(Cc2ccc(OC)cc2)C(=O)C(CC(=O)NC2CCCC2)C1 (stereo not given),36,nt,9,0.1,10,-3
O=C(CSc1nccc(=O)[nH]1)c1ccco1,13,-1,4,-0.2,2,4
O=C(Nc1cccc(-c2nc3ncccc3o2)c1)c1ccc2c(c1)OCO2,-3,nt,-5,1.0,-6,-5
CCOc1ccccc1/C=C/c1onc(C)c1S(=O)(=O)N1CCC(C(=O)N2CCCCCC2)CC1,-2,2,1,0.7,-26,38
CCC(CO)Oc1cc(NC(=O)c2ccc(OC)cc2)c2ncn(C(C)C)c2c1 (stereo not given),-5,nt,-4,0.0,-1,-57*
Cn1nc(C(=O)OCC(=O)Nc2ccc(C(N)=O)cc2)c2ccccc2c1=O,-1,nt,-2,1.2,-3,36
CCCCn1c(N)c(N(CC(C)C)C(=O)c2cccc(S(=O)(=O)N(C)c3ccc(C)cc3)c2)c(=O)[nH]c1=O,-4,13,-3,1.0,-17,40
O=C(c1ccccc1)c1nc[nH]c1C(=O)Nc1ccccn1,-16,-17,-20,-1.5,3,-2
CC1(C)Oc2ccc(C(=O)NN)cc2NC1=O,-2,9,nt,2.3,-1,1
Cc1occc1-c1nnc(SCC(=O)N(C)c2ccccc2)n1C,2,1,-10,-0.5,-5,14

# Entries listed so far with fluorine (10):
SMILES,Six1-Eya2 inh,TRPV1 potentiator,CtBP-E1A blk,TRPML1 ag,D2 PAM,TRPML1 inh
CC1CN(C(=S)Nc2ccccc2F)CC(C)O1 (stereo not given),-2,?,7,0.1,-2,28
O=C(Nc1cccc(F)c1)C1CC(=O)N(c2ccc(Br)cc2)C1 (stereo not given),9,9,-2,-0.1,-6,9
N#CCCN(Cc1ccccc1)C(=O)Nc1ccc(F)cc1,9,nt,5,-0.2,-7,-2
CC(C)c1c(Cl)c(O)c(-c2ccccc2)c(=O)n1-c1ccc(F)cc1,-4,10,3,-0.4,-13,-5
O=C(O)c1c2c(nc3ccc(F)cc13)CCC2,4,-2,8,0.5,3,8
Cc1ccc(CCNC(=O)C2CC(c3cc(C(F)(F)F)cc(C(F)(F)F)c3)=NO2)cc1 (stereo not given),2,-26,11,1.9,-11,22
Cc1c(CNC(=O)c2cnn3c2NC(c2ccccc2)CC3C(F)(F)F)cnn1C (stereo not given),0,-7,8,-0.4,-22,3
O=C(O)C1CC1C(=O)Nc1cc(F)ccc1F (stereo not given),0,0,7,-0.3,-1,-19
O=C(O)c1cc2n(n1)C(C(F)(F)F)CC(c1ccccc1)N2 (stereo not given),-6,-1,-1,-1.3,-13,3
COc1cccc(-c2cc(NC=O)c3ncc(-c4ccc(F)c(Cl)c4)n3c2)c1,-5,nt,-8,0.1,-16,38

# Screening results from PubChem BioAssay.
